Assay outcomes from PubChem BioAssay.
LANA-H2B inh: blocks KSHV LANA binding to histone H2A/H2B; Q9QR71; cell-free LANA-H2A/H2B peptide, fluorescence polarization; inhibition, % (concentration not given with the values); 320,000 compounds, 0.6% hits; AID 2629; in the data active = inhibition mostly above about 10%, no sharp cut-off; inactive = mostly below about 6.7%;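 note: stock transfer was 7.5 nL into about 10 µL; 0% = median of vehicle wells and 100% = median of positive control wells; one replicate is shown; the record names a cut of 25% in any replicate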
ALR inh: blocks human ALR sulfhydryl oxidase activity. purified ALR, DTT oxidation, H2O2 HRP-luminol luminescence. inhibition, % (concentration not given with the values). 290,000 compounds, 3.8% hits. AID 485317;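 active = mean and each replicate at 75% or more; inconclusive = only one of the two met; inactive = neither met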;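 note: stock transfer was 7.5 nL into about 7.5 µL; 0% = neutral wells and 100% = wells with inactivated enzyme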
Target sequence (P55789 whole entry, looked up): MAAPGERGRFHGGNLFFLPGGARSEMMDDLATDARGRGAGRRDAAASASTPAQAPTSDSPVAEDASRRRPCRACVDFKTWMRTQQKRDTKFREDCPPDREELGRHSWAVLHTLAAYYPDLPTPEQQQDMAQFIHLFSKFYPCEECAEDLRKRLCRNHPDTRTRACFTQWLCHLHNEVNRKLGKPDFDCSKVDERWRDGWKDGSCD
RanGTP-Imp inh: inhibitors of RanGTP-importin-beta interaction, primary screen, biochemical, FRET, CFP-Ran, YFP-importin-beta, homogeneous | cell-free CFP-Ran/YFP-importin-beta FRET ratio | inhibition, % (test concentration not listed) | 300,000 compounds, 1.1% hits | AID 2216;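 active = most replicates above 15%; inconclusive = exactly half above 15%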;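 note: 0% = DMSO wells and 100% = Ran loaded with GDP instead of GTP; wells of about 40 µL received 100 nL stock; the first replicate is given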
HNF4A DNA FP: change in binding of human HNF4 alpha to DNA; HNF4a-FITC DNA binding, fluorescence polarization, 1 h; activity change, % at 10 µM; 360,000 compounds, 0.3% hits; in the data active = activity change above about 30%, passing the limit was not always enough;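 note: controls were the assay level and a saturating level of protein; the project sought stronger binding though the title names inhibitors; some compounds called inactive have numbers as strong as hits; positive values seem to mean higher polarization but the record does not say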
Target sequence (P41235 whole entry, looked up): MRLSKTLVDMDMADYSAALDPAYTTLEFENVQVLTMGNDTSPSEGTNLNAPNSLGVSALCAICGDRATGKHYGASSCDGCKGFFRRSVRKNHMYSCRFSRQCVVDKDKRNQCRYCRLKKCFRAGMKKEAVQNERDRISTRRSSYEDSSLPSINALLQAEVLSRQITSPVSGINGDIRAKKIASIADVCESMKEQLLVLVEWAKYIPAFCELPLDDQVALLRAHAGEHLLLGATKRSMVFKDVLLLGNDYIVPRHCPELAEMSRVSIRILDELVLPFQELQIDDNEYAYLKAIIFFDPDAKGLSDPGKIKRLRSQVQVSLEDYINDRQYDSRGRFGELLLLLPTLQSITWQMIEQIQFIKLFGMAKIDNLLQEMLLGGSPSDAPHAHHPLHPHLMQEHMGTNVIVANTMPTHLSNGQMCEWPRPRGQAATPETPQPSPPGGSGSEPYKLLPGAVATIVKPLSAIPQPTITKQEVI
Calb FLC: C. albicans growth modulation with fluconazole; AID 1979; C. albicans CaCi-2 (fluconazole-resistant clinical isolate) + fluconazole, Alamar Blue growth, 48 h; growth inhibition, % (test concentration not listed); 300,000 compounds, 0.57% hits;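 active = most replicates above 75%; inconclusive = exactly half above 75%; inactive = most below 75%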;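 note: all wells also contain fluconazole at 8 µg/ml as a sub-toxic cotreatment; 0% = median of DMSO wells and 100% = median of geldanamycin control wells; wells of about 8 µL received 7.5 nL stock; the first replicate is given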
Vif TR-FRET: HIV-1 Vif–A3G interaction blockers – biochemical, TR-FRET, GST-Vif 1-94, biotin-A3G peptide, dose response retest, primary screen (AID 1117319); TR-FRET GST-Vif / biotin-A3G peptide binding; higher % means a stronger effect; test concentration not given here; strong numbers were not always called active; one-dose inhibition, %; IC50 in µM for titrated hits; 260,000 compounds, 0.57% hits;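 active = above the screen mean plus three standard deviations and confirmed in dose response; inconclusive = results disagree or hit not tested in dose response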;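 note: Vif residues 1-94 fused to GST binding biotinylated APOBEC3G peptide 110-148; 0% = full assay without inhibitor and 100% = GST in place of GST-Vif; retest series ran down from 100 µM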
B2AR ag: human beta-2 adrenergic receptor agonism by FAP | Am2.2-beta2AR cells, FAP receptor internalization, flow cytometry; reference of the scale not given here | response, % (concentration not given with the values) | 340,000 compounds, 0.43% hits | AID 504454;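 active = response above a set limit, near 3 SD of response in nonfluorescent compounds, cut at about 42% in these data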;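 note: stock transfer was 100 nL into about 11 µL; a reference agonist was the positive control; negative values mostly stem from fluorescent compounds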
Target sequence (P07550 whole entry, looked up): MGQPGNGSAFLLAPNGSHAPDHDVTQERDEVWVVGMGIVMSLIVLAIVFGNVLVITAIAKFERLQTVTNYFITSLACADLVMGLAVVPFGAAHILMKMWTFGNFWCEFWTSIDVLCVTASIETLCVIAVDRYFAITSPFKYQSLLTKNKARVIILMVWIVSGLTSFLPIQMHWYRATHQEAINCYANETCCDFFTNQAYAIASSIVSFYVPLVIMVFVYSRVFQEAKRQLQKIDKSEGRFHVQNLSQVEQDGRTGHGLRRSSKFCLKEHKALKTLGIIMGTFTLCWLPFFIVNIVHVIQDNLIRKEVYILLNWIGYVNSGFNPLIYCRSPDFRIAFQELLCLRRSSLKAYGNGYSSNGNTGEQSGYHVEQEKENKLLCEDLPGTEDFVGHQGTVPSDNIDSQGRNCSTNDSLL
Active calls of the source: *.

O=C1C=CN(Cc2ccccc2)CC1 was read as LANA-H2B inh -2.6, RanGTP-Imp inh 6.0, HNF4A DNA FP 0.7, Calb FLC -12 and B2AR ag 3.
For CCn1c(SCC(=O)c2[nH]c(C)c(C(C)=O)c2C)nnc1-c1ccccc1 the results were LANA-H2B inh 0.7, ALR inh 13, RanGTP-Imp inh 7.1, HNF4A DNA FP 3.4, Calb FLC 31, Vif TR-FRET 6% and B2AR ag -2.
`O=C(CN(C(=O)CNC(=O)c1cccs1)c1cccc(F)c1)NC1CCCCC1` gave LANA-H2B inh -0.5, RanGTP-Imp inh 5.2, HNF4A DNA FP 0.9, Calb FLC 41 and B2AR ag -3.
Screening N#Cc1ccc(OCC(=O)Nc2ccccc2NS(=O)(=O)c2cccs2)cc1 returned LANA-H2B inh 2.1, ALR inh -3, RanGTP-Imp inh 2.7, HNF4A DNA FP -2.9, Calb FLC -3, Vif TR-FRET -1% and B2AR ag -1.
`Cc1ccc(C)c(C(=O)C(C)OC(=O)CN2C(=O)NC3(CC(C)CC(C)(C)C3)C2=O)c1` (centres undefined) gave LANA-H2B inh -3.9, ALR inh -2, RanGTP-Imp inh 4.4, HNF4A DNA FP -4.6, Calb FLC 2, Vif TR-FRET -5% and B2AR ag 1.
For COc1cccc(C(=O)OCC(=O)Nc2ccc(N3CCOCC3)cc2)c1 the results were LANA-H2B inh 6.9, ALR inh -1, HNF4A DNA FP 5.1, Vif TR-FRET 9% and B2AR ag 7.
COc1ccc(NC(=O)CCC(=O)c2ccc(C(C)C)cc2)cc1 was read as LANA-H2B inh 4.7, ALR inh 2, RanGTP-Imp inh 2.9, HNF4A DNA FP -1.4, Calb FLC -3 and B2AR ag 1.
Screening CSc1ccccc1NC(=O)CN(C)C(=O)Cc1c(F)cccc1Cl returned LANA-H2B inh -4.6, ALR inh 1, RanGTP-Imp inh 5.2, HNF4A DNA FP -3.9, Calb FLC -7, Vif TR-FRET 0% and B2AR ag -1.
Screening O=C(NC1CCc2ccccc21)c1cc(COc2c(F)cccc2F)on1 (centres undefined) returned LANA-H2B inh -0.4, ALR inh 1, RanGTP-Imp inh -0.6, HNF4A DNA FP -0.3, Calb FLC -2 and B2AR ag 8.
Screening COC(=O)c1ccccc1OCC(=O)N1CCN(c2ccc(OC)cc2)CC1 returned LANA-H2B inh -2.0, ALR inh 88*, RanGTP-Imp inh 3.3, HNF4A DNA FP -2.4, Calb FLC -2, Vif TR-FRET -8% and B2AR ag -1.
For COCCN=C1NN=C(c2cc(C)n(CC3CCCO3)c2C)CS1 (centres undefined) the results were LANA-H2B inh 2.7, ALR inh -9, RanGTP-Imp inh inconclusive, HNF4A DNA FP -0.1, Calb FLC 28 and B2AR ag 2.
Screening FC(F)(F)c1ccccc1C1=CC(c2ccccc2)n2ncnc2N1 (centres undefined) returned LANA-H2B inh 8.6, ALR inh 2, RanGTP-Imp inh 5.4, HNF4A DNA FP 2.1, Calb FLC -10 and B2AR ag 0.
`CCN(CC)S(=O)(=O)c1ccc(C)c(NC(=S)NNC(=O)C2CC2)c1` gave LANA-H2B inh -5.6, ALR inh 56, RanGTP-Imp inh inconclusive, HNF4A DNA FP -2.2, Calb FLC -16, Vif TR-FRET -4% and B2AR ag 11.
For Cc1cccc(NS(=O)(=O)c2c(C)nc3scc(C)n3c2=O)c1 the results were LANA-H2B inh 3.0, ALR inh -1, RanGTP-Imp inh 5.8, HNF4A DNA FP -1.8, Calb FLC -2 and B2AR ag 5.
COc1ccccc1-c1oc2ccccc2c1C#CCO was read as LANA-H2B inh -2.4, ALR inh -4, HNF4A DNA FP 1.4 and B2AR ag -4.
Screening COc1cc(/C=N/Nc2nc3ccccc3s2)ccc1O returned LANA-H2B inh 4.5, ALR inh 46, RanGTP-Imp inh inconclusive, HNF4A DNA FP 3.2, Calb FLC -6, Vif TR-FRET 12% and B2AR ag 19.
For Cc1ccc(N(CC(=O)NC(C)(C)C)C(=O)CNC(=O)c2cccs2)cc1C the results were LANA-H2B inh -3.6, ALR inh -5, RanGTP-Imp inh 1.7, HNF4A DNA FP -1.8, Calb FLC -3, Vif TR-FRET -1% and B2AR ag -1.
Screening Cc1c(C(=O)OCC(C)C)[nH]c2c1C(=O)CC(c1cccs1)C2 (centres undefined) returned LANA-H2B inh -7.4, ALR inh -1, RanGTP-Imp inh -1.6, HNF4A DNA FP 2.8, Calb FLC 11, Vif TR-FRET inconclusive and B2AR ag 17.
Nc1nnn(-c2ccccc2)c1-c1ccccc1 was read as LANA-H2B inh 1.4, ALR inh -2, RanGTP-Imp inh 3.2, HNF4A DNA FP 1.8, Calb FLC -6 and B2AR ag -4.
`CCCCC1(C)OC(=O)C(=Cc2ccc(N(C)C)cc2)C(=O)O1` (centres undefined) gave LANA-H2B inh -0.7, ALR inh 47, RanGTP-Imp inh 6.4, HNF4A DNA FP 0.1, Calb FLC 1, Vif TR-FRET 21% and B2AR ag 11.
For O=C(CSCc1ccc(Br)cc1)NCCc1ccccc1 the results were LANA-H2B inh -1.5, RanGTP-Imp inh -2.6, HNF4A DNA FP 0.8, Calb FLC 15, Vif TR-FRET -9% and B2AR ag -8.
CCc1ccc(Nc2nnc(SCn3nnc4ccccc4c3=O)s2)cc1 was read as LANA-H2B inh -0.8, ALR inh -2, HNF4A DNA FP -1.3, Vif TR-FRET 3% and B2AR ag -4.
For Cc1cccc(NC(=O)C2CCCN(S(=O)(=O)c3cccs3)C2)c1C (centres undefined) the results were LANA-H2B inh 1.1, ALR inh -3, RanGTP-Imp inh -0.4, HNF4A DNA FP 7.6, Calb FLC 9 and B2AR ag -11.
For CCOC(=O)c1[nH]c(C)c(C(=O)OCC(=O)NCc2ccc(OC)cc2)c1C the results were LANA-H2B inh -0.5, ALR inh -1, HNF4A DNA FP 2.2, Vif TR-FRET -8% and B2AR ag 0.
Cc1cc(C)c2c(C(C)(C)C)nn(-c3ccccc3)c2n1 was read as LANA-H2B inh -4.1, ALR inh -8, RanGTP-Imp inh -1.4, HNF4A DNA FP 1.2, Calb FLC 2, Vif TR-FRET 3% and B2AR ag -5.
`COCC(=O)Nc1ccc2c(c1)OCO2` gave LANA-H2B inh 3.1, ALR inh -2, RanGTP-Imp inh 2.0, HNF4A DNA FP -2.0, Calb FLC 9, Vif TR-FRET 9% and B2AR ag 9.
O=C(COC(=O)c1cccnc1Nc1cccc(C(F)(F)F)c1)NCCN1C(=O)CSC1=O was read as LANA-H2B inh 1.5, RanGTP-Imp inh -3.5, HNF4A DNA FP 4.3, Calb FLC 3, Vif TR-FRET -5% and B2AR ag 5.
`COc1ccc(OCc2cc(C(=O)N3CCCC(OC)C3)no2)c2ccccc12` (centres undefined) gave LANA-H2B inh 10, ALR inh -25, RanGTP-Imp inh inconclusive, HNF4A DNA FP 16, Calb FLC -6 and B2AR ag 6.
Screening CNC(=O)CSc1nnc(C2CC2)n1-c1ccccc1 returned LANA-H2B inh -2.3, ALR inh -36, RanGTP-Imp inh 0.1, HNF4A DNA FP 4.1, Calb FLC -17, Vif TR-FRET -2% and B2AR ag 2.
`COc1ccc(Cn2c(-c3ccco3)nc3oc4ccccc4c(=O)c3c2=O)cc1` gave LANA-H2B inh -0.6, RanGTP-Imp inh 3.5, HNF4A DNA FP 1.4, Calb FLC 14, Vif TR-FRET -1% and B2AR ag -19.
For CC(=O)Nc1nc(CCC(C)C)cc2c1c(=O)oc1ccccc12 the results were LANA-H2B inh -8.0, ALR inh -6, RanGTP-Imp inh 3.1, HNF4A DNA FP -4.8, Calb FLC 4, Vif TR-FRET 5% and B2AR ag 2.
CC(=O)Nc1ccc(NC(=O)C(F)(F)F)cc1 was read as LANA-H2B inh -9.3, ALR inh 0, RanGTP-Imp inh -2.1, HNF4A DNA FP -2.0, Calb FLC -4, Vif TR-FRET 4% and B2AR ag -1.
For C=C(C)Cn1c(SCCN2CCOCC2)nc2c1c(=O)[nH]c(=O)n2C the results were LANA-H2B inh 0.7, ALR inh 0, RanGTP-Imp inh -2.6, HNF4A DNA FP -1.2, Calb FLC -1, Vif TR-FRET -2% and B2AR ag 1.
For COc1ccc(-c2csc(N3CCOCC3)n2)cc1OC the results were LANA-H2B inh -0.5, ALR inh inconclusive, RanGTP-Imp inh -2.1, HNF4A DNA FP -0.9, Calb FLC 26, Vif TR-FRET 8% and B2AR ag 8.
`O=C(NCCC(=O)N1CCN(c2ccccc2O)CC1)c1ccc(Cl)cc1` gave LANA-H2B inh 1.7, ALR inh 27, RanGTP-Imp inh 1.8, HNF4A DNA FP -1.3, Calb FLC 9, Vif TR-FRET 8% and B2AR ag -4.
C=CCOc1c(Br)cc(CNc2ccc3[nH]c(=O)[nH]c3c2)cc1OCC was read as LANA-H2B inh -2.1, ALR inh inconclusive, RanGTP-Imp inh 4.0, HNF4A DNA FP -2.6, Calb FLC -4, Vif TR-FRET inconclusive and B2AR ag 0.
`CCCn1cnc2c(SCc3ccc(Cl)cc3)nc(N)nc21` gave HNF4A DNA FP 3.2, Vif TR-FRET -6% and B2AR ag -2.
CN(C(=O)c1ccc(NC(=O)Cc2ccc(NC(=O)C3CCCN(C(=O)C4CCCCC4)C3)cc2)cc1)C1CC1 (centres undefined) was read as LANA-H2B inh 1.5, ALR inh 1, HNF4A DNA FP -1.2 and B2AR ag 24.
For CCc1nn(CC(=O)N2CCN(c3ccc(OC)cc3)CC2)c(=O)c2cc3occc3n12 the results were LANA-H2B inh 2.3, ALR inh 44, RanGTP-Imp inh 11, HNF4A DNA FP -1.2, Calb FLC -1 and B2AR ag -3.
Screening COc1ccc(CN(C)C(=O)c2ccc(NC(=O)CC3SC(N4CCCC4)=NC3=O)cc2)c(OC)c1OC (centres undefined) returned LANA-H2B inh -1.7, ALR inh -1, RanGTP-Imp inh 1.1, HNF4A DNA FP -1.5, Calb FLC 1, Vif TR-FRET 3% and B2AR ag -10.
For CCn1c2ccccc2c2cc(NC(=O)C(C)C)ccc21 the results were LANA-H2B inh 4.2, ALR inh 1, RanGTP-Imp inh 1.7, HNF4A DNA FP -0.1, Calb FLC 96*, Vif TR-FRET -4% and B2AR ag -5.
For CCn1c(C)nc2cc(C(=O)NNC(=S)Nc3ccccc3OC)ccc21 the results were LANA-H2B inh -1.5, ALR inh 56, RanGTP-Imp inh -5.7, Calb FLC 2 and Vif TR-FRET 11%.
For COC(=O)[C@@H]1[C@@H](C#N)C2(c3ccccc3-c3ccccc32)N(c2ccc(Cl)cc2)N1C#N the results were LANA-H2B inh -1.1, ALR inh -10, RanGTP-Imp inh -1.4, HNF4A DNA FP -8.3, Calb FLC 10 and B2AR ag 32.
Cc1nn(Cc2ccc(Cl)cc2)c2sc(C(=O)OCC(N)=O)cc12 was read as LANA-H2B inh 6.9, ALR inh 2, RanGTP-Imp inh 6.9, HNF4A DNA FP 1.7, Vif TR-FRET -4% and B2AR ag 1.
COc1ccc(NS(=O)(=O)c2cc(NC(=O)c3ccccn3)ccc2OC)cc1Br was read as LANA-H2B inh -8.6, ALR inh 1, HNF4A DNA FP -4.7 and B2AR ag -7.
CN(C)Cc1cc(CN(C)C)c(O)c(CCc2ccccc2)n1 was read as LANA-H2B inh 1.8, ALR inh -2, RanGTP-Imp inh -8.6, HNF4A DNA FP -0.8, Calb FLC 29, Vif TR-FRET -6% and B2AR ag -2.
CC(=O)NC(=S)Nc1cc(C(=O)O)ccc1Cl was read as LANA-H2B inh -1.3, ALR inh 2, RanGTP-Imp inh -1.3, HNF4A DNA FP 1.4, Calb FLC 44, Vif TR-FRET -4% and B2AR ag -7.

Random draw from the library; about 6.3% have a hit in one of these screens.
